Assay outcomes (PubChem BioAssay)
NPYLR7 ag = activates Aedes aegypti NPYLR7 receptor; HEK293T NPYLR7/Galpha15, GCaMP6s calcium fluorescence; activation, % at 10 µM; 0.15% of 270,000 active; in the data active means activation above about 40%;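 further: 0% = vehicle and 100% = reference agonist at the receptor; some compounds past the cut are filed as inactive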
NPYLR7 ag max-min = further read-out of NPYLR7 ag, marked with its call; activation, %; measured here: Max-Min RFU normalised activation; some inactives read as strong as hits;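 span of the calcium signal over five minutes; 0% = vehicle and 100% = native peptide agonist; compound fluorescence can raise it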
* = called active by the depositor; & = joins results of further samples. The list is partial. The share of hits here may be higher or lower than overall.

SMILES	NPYLR7 ag	NPYLR7 ag max-min
CCOC(=O)C1=C(C)N=c2s/c(=C\c3ccc(OC(C)=O)cc3)c(=O)n2C1c1ccc(OC)cc1 (configuration not stated)	14	20
O=C(Cc1cc(-c2ccc3c(c2)OCO3)on1)Nc1cccnc1	9	10
O=C(O)c1cc(-c2ccc3c(c2)OCO3)nc2ccc(Br)cc12	7	6
Cc1cc(C2=NNC(=NC3CCCC3)SC2)c(C)n1Cc1ccco1	6	3
O=C(Cn1nc(-c2cccs2)c2sc(N3CCOCC3)nc2c1=O)Nc1ccccc1	-2	-7
Cc1cc(=O)n(C(=O)Cc2ccc(Cl)c(O)c2)[nH]1	1	-4
NC(=O)C1(C(=O)N2CCOC(c3ccc(F)cc3)C2)CC1 (configuration not stated)	4	-6
O=C(NCc1ccc(F)cc1)c1csc(CSc2nnc(Cc3ccccc3)n2-c2cccc(Cl)c2)n1	25	28
COc1cc(OC)cc(C(=O)Nc2c(C)nc3sccn3c2=O)c1	-10	-10
CN(Cc1ccccc1)C(=O)Cn1nnc(-c2ccccc2)c1COc1ccccc1	3	0
COCC(=O)Nc1cccc(C2SCC(=O)N2c2cc(C)ccc2F)c1 (configuration not stated)	0	11
CN(C)C1CCCN(C(=O)NCc2ccc(Cn3cccn3)cc2)C1 (configuration not stated)	15	20
Cn1c(SCC(=O)NC2CCCC2)nc2c(-c3ccccc3)c[nH]c2c1=O	-1	-6
CC(=O)c1cc2c(cc1NC(=O)CSc1n[nH]c3nc4ccccc4n13)OCO2	6	3
CCCCc1ccc(S(=O)(=O)Nc2ccccc2C(=O)NCc2cccc(Cl)c2)cc1	-3	-1
COc1cc2c(cc1CNCC1Cc3ccccc3O1)OC(C)C2 (configuration not stated)	-1	0
Cc1ccc(CN2CCC(CNC(=O)NC3CCCC3)C2)cc1F (configuration not stated)	0	-2
O=C(CCCCSc1nnc(Cc2ccccc2)n1-c1ccc(Cl)c(Cl)c1)NCCc1ccc(Cl)cc1Cl	0	7
COCC(=O)N1CCN2C(=O)c3cc(-c4cccc(C(F)(F)F)c4)ccc3NC(=O)[C@H]2C1	-10	-18
CC(C)CNC(=O)c1cn(C2CCN(C(=O)c3ccccn3)CC2)nn1	-3	-7
CC(=O)Nc1ccc(NC(=O)c2oc3c(c2C)C(=O)CCC3)c(C(F)(F)F)c1	9	8
O=C(Nc1cccc2cnccc12)C1COc2ccccc2C1 (configuration not stated)	4	4
C(=Cc1ccccc1)CSc1nnc(-c2c[nH]c3ccccc23)o1	8	14
O=C(CCN1CCCCCCC1)NCCCc1cccnc1	6	10
Cc1c(C)n2c3c(=O)[nH]c(=O)n(C)c3nc2n1CC(C)C	-4	-8
CCCc1cc(CNC(=O)c2ccc(N3CCC(CO)C3)nc2)on1 (configuration not stated)	4	2
Cc1nc(C(F)(F)F)ccc1C(=O)Nc1ccc(-c2cccc(-c3ccc4c(c3)NC(=O)CO4)n2)cc1	13	16
CCCCCCSc1nc(-c2ccccc2)cc(-c2ccc(OC)cc2)c1C#N	0	-3
CCN(CC)S(=O)(=O)c1ccc2c(c1)nc(SCc1ccc(OC)c(C)c1)n2C(C)C	4	1
Cc1cc(CNC(=O)[C@H]2C[C@@](C)(C(=O)O)N(C)[C@H]2c2ccccc2)n[nH]1	18	6

Single records, from the list above. Values in the order: NPYLR7 ag | NPYLR7 ag max-min
Entry for `COCC(=O)N1CCN2C(=O)c3cc(-c4cccc(C(F)(F)F)c4)ccc3NC(=O)[C@H]2C1` → -10 | -18
Entry for `Cc1ccc(CN2CCC(CNC(=O)NC3CCCC3)C2)cc1F` (configuration not stated) → 0 | -2

Additional structures follow.
SMILES	NPYLR7 ag	NPYLR7 ag max-min
Cc1cc(C(=O)Nc2nnc(-c3cc(C)nn3C)o2)on1	-4	-4
O=C(NC(=S)N1CCN(c2ccccc2)CC1)c1c(F)cccc1F	0	2
Cc1ccc(N=Cc2nc(-c3ccccc3Br)oc2O)cc1	-3	-7
NS(=O)(=O)c1cnccc1Sc1c(Cl)cccc1Cl	2	4
Cc1ccc(-c2cc(C(F)(F)F)n3ncc(C(=O)N4CCN(c5ccccc5)CC4)c3n2)cc1	-6	-10
O=C1C2C3C=CC(C3)C2C(=O)N1/N=C\c1ccccc1O (configuration not stated)	-2	-5
COc1cccc(CN(CC2CC(c3ccc(Cl)cc3)=NO2)C(=O)C2CCCC2)c1 (configuration not stated)	32	38
CC(C(=O)c1ccc2c(c1)NC(=O)CO2)n1nnc(-c2cccc(F)c2)n1 (configuration not stated)	-1	-2
O=c1oc2cc(O)c(Br)cc2s1	-2	-3
CCN(C(=O)c1ccc(=O)n(Cc2ccc(F)cc2)n1)C1CCCCC1	3	3
CCCC(=O)Nc1c(C)nc2sccn2c1=O	11	-3
COc1ccccc1OC1CN(C(=O)c2cc3n(n2)CCCN(C)C3)C1	2	-1
COc1cn(-c2ccccc2)nc1C(=O)N1CCC(C(N)=O)CC1	4	3
COc1ccc(C(=O)N2CCCC(C(=O)c3ccc(Cl)cc3C)C2)o1 (configuration not stated)	13	4
O=c1oc(-c2cccc([N+](=O)[O-])c2)nc2ccc(Cl)cc12	3	10
CCSCCNC(=O)c1cc(N2CCSCC2)nc2ccccc12	24	14
COCCCNCC(=O)N(CCc1ccccc1)Cc1ccc(C)o1	4	1
COCCN1C(=O)N2CCCCC2=C2Sc3ccccc3N21	2	-1
COc1cc(NC(=O)C(C2CCCC2)N2CCN(C(=O)c3cccc([N+](=O)[O-])c3)CC2)cc(OC)c1 (configuration not stated)	-1	5
COCCN(CC(=O)N(CCc1ccc(OC)c(OC)c1)Cc1sccc1C)C(=O)Nc1ccccc1F	9	9
c1ncn(Cc2ccc(CNCC3CCCCC3)cc2)n1	3	2
COc1ccc(CC(=O)Nc2nc(OCC(F)(F)F)cnc2-c2ccc(Cl)cc2Cl)cc1	-3	-6
COc1ccc(C(=O)Nc2ccc(Nc3ccc(-n4ccc(C)n4)nn3)cc2)cc1	-5	-7
O=C(c1c[nH]c(=O)[nH]c1=O)N1CCN(Cc2ccc(Cl)s2)CC1	3	5
CN(c1ccccc1)S(=O)(=O)c1cc(C(=O)O)sc1Br	9	4
Oc1ccc(Cc2nncn2-c2ccc(Cl)cc2)cc1	9	4
CC(C)c1ccc(NC(=O)C(C)N2CCCN(C)CC2)cc1 (configuration not stated)	4	3
CC(N)C(N)=O (configuration not stated)	-1	4
Cc1cc(C)c(NC(=O)CNC(=O)CN(C)Cc2ccc(Br)cc2)c(C)c1	1&4	-1&-1
CN(CCC(=O)N1CCN(c2ccc(F)cc2)CC1)Cc1cnn(C)c1	-1	-4
CCCN1C(=O)C(=Cc2c(NCCc3ccccc3)nc3c(C)cccn3c2=O)SC1=S	1	-1
c1ccc2sc(CSc3nc4ccccc4s3)nc2c1	-3	-5
COc1cc(C(=O)Nc2c3c(nn2-c2ccc(C)cc2)CS(=O)(=O)C3)cc(OC)c1OC	0	1
CCCCc1ccc(C(=O)N(CC(=O)N2CCc3sccc3C2c2ccc(OC)cc2)C(C)C)cc1 (configuration not stated)	13	23
Oc1c(C(c2ccc(C(F)(F)F)cc2)N2CCOCC2)ccc2cccnc12 (configuration not stated)	6	5
COc1ccc(NC(=O)c2sc(=O)n(Cc3ccc(-c4ccccc4)cc3)c2C)cc1OC	15	5
CCC(NC(=O)c1nc2ccccc2c(=O)[nH]1)c1nc(C)c(C)s1 (configuration not stated)	1	9
CCCN(Cn1nc(-c2ccco2)n(-c2ccccc2)c1=S)C1CCS(=O)(=O)C1 (configuration not stated)	-9	-9
O=C(O)c1c[nH]c2ccc(S(=O)(=O)N3CCN(c4cccc(Cl)c4)CC3)cc2c1=O	0	1
CCOC(=O)c1[nH]c(C)c(C(=O)OCC)c1CC	3	6
O=C(CN1CCSC1=O)Nc1ncc(Cc2ccccc2Cl)s1	4	2
CCn1cnnc1CNS(=O)(=O)c1ccccc1OC(F)(F)F	-1	-2
COCCN(CC(=O)N(CCc1c[nH]c2ccccc12)Cc1ccc(OC)c(OC)c1)C(=O)Nc1cccc(Cl)c1	-5	7
CC1NC(=S)N(CC(C)c2ccccc2)C1=O (configuration not stated)	16	14
COc1ccccc1CN(Cc1ccc(F)cc1)CC(O)COCc1ccccc1 (configuration not stated)	14	22

Taken from the results shown for reference:
SMILES	NPYLR7 ag	NPYLR7 ag max-min
Cc1cc(C)c(NC(=O)CNC(=O)CN(C)Cc2ccc(Br)cc2)c(C)c1	1&4	-1&-1
CN(CCC(=O)N1CCN(c2ccc(F)cc2)CC1)Cc1cnn(C)c1	-1	-4
CCCN1C(=O)C(=Cc2c(NCCc3ccccc3)nc3c(C)cccn3c2=O)SC1=S	1	-1
c1ccc2sc(CSc3nc4ccccc4s3)nc2c1	-3	-5
COc1cc(C(=O)Nc2c3c(nn2-c2ccc(C)cc2)CS(=O)(=O)C3)cc(OC)c1OC	0	1
CCCCc1ccc(C(=O)N(CC(=O)N2CCc3sccc3C2c2ccc(OC)cc2)C(C)C)cc1 (configuration not stated)	13	23
Oc1c(C(c2ccc(C(F)(F)F)cc2)N2CCOCC2)ccc2cccnc12 (configuration not stated)	6	5
COc1ccc(NC(=O)c2sc(=O)n(Cc3ccc(-c4ccccc4)cc3)c2C)cc1OC	15	5
CCC(NC(=O)c1nc2ccccc2c(=O)[nH]1)c1nc(C)c(C)s1 (configuration not stated)	1	9
CCCN(Cn1nc(-c2ccco2)n(-c2ccccc2)c1=S)C1CCS(=O)(=O)C1 (configuration not stated)	-9	-9
O=C(O)c1c[nH]c2ccc(S(=O)(=O)N3CCN(c4cccc(Cl)c4)CC3)cc2c1=O	0	1
CCOC(=O)c1[nH]c(C)c(C(=O)OCC)c1CC	3	6
O=C(CN1CCSC1=O)Nc1ncc(Cc2ccccc2Cl)s1	4	2
CCn1cnnc1CNS(=O)(=O)c1ccccc1OC(F)(F)F	-1	-2
COCCN(CC(=O)N(CCc1c[nH]c2ccccc12)Cc1ccc(OC)c(OC)c1)C(=O)Nc1cccc(Cl)c1	-5	7
CC1NC(=S)N(CC(C)c2ccccc2)C1=O (configuration not stated)	16	14
COc1ccccc1CN(Cc1ccc(F)cc1)CC(O)COCc1ccccc1 (configuration not stated)	14	22

Following part:
SMILES	NPYLR7 ag	NPYLR7 ag max-min
Cc1ccc(C)c(N(C(=O)C2CC(=O)N(CC3CC3)C2)C(C)C)c1 (configuration not stated)	2	2
CCCCNC(=O)C1(C)CCN1C(=O)c1cc(-c2ccccc2)cs1 (configuration not stated)	2	0
O=C(NCCc1ccccc1)C(C1CCCC1)N1CCN(C(=O)c2ccc(Cl)cc2Cl)CC1 (configuration not stated)	-4	-2
COc1ccc(C2CC(=O)C(C)(C)O2)cc1 (configuration not stated)	1	-1
COc1cccc(C2CCN2C(=O)Nc2n[nH]c(CCc3ccccc3)n2)c1 (configuration not stated)	3	0
Cc1ccc(NC(=O)c2ccc(Cl)nc2Cl)cc1F	2	11
CCOC(=O)CSc1ncnc2c1nnn2-c1ccc(F)cc1	16	21
N#Cc1cc2c(=O)n3ccccc3nc2n(CC2CCCO2)c1=O (configuration not stated)	6&4	2&3
COc1ccccc1C1CC1C(=O)N1CCCC(c2cc(C)[nH]n2)C1 (configuration not stated)	-24	-25
COCCN(CC(=O)N(CCc1c[nH]c2ccccc12)Cc1ccc(C)cc1)C(=O)Nc1ccc(Cl)cc1	-2	3
COCCN1C(=O)CC(CC(=O)N2CCc3c(Cl)cccc3C2)(c2ccccc2F)C1=O (configuration not stated)	0	-2
Cc1ccc(CNC(=O)C(C#N)C(=O)CCc2ccco2)cc1 (configuration not stated)	13	7
O=C(CN1CN(c2ccccc2)C2(CCN(C(=O)/C=C/c3ccccc3)CC2)C1=O)Nc1ccc(F)cc1	36	27
Cc1cccc(-n2c(-c3ccccc3C)n[nH]c2=S)c1	-3	2
CC(C)[C@@H]1C[C@@H]2C[C@H](N(CC(=O)O)C(=O)CC(C)(C)C)C[C@@H]2CO1	21	20
Cc1c(CCOC(=O)C23CC4CC(CC(C)(C4)C2)C3)sc[n+]1CC#N	3	4
COc1cn(CC(=O)Nc2ccc(OC(F)(F)F)cc2)c(CSc2nc(C)cc(C)n2)cc1=O	0	-6
CC[n+]1ccc(C=Cc2ccc(N(C)C)cc2)cc1	39	30
CCOC(=O)c1c(C)n(-c2ccc(OCC)cc2)c2ccc(OC(=O)COc3ccccc3)cc12	-7	-1
COc1ccccc1NC(=O)NNC(=O)c1ccc(=O)n(Cc2ccc(C)cc2)c1	2	-1
O=C(c1cnn(-c2ccccc2)c1)N1CCN(S(=O)(=O)c2ccccc2F)CC1	6	0
Cc1nc(N(C)C)nc(N2CCC(N(C)C)C2)c1C (configuration not stated)	5	0
CN(C)S(=O)(=O)CCNC(=O)c1cccc(-c2ncc[nH]2)c1	1	43
CCOc1ccc(C(=O)N(C)Cc2ccc(Br)s2)cc1OC	0	0
c1ccc(OCCCn2c(C3CC3)nc3ccccc32)cc1	-4	9
O=C(NCC(F)(F)F)c1ccc2c(c1)ncn2-c1ccccc1	2	1
CN(C)c1ccc(C=NNc2nn[nH]n2)cc1	-6	-7
Cc1nn(CC(=O)NC(=O)NC2CCCCC2)c(C)c1[N+](=O)[O-]	10	9
Cc1noc(N)c1C(=O)OCC(=O)N(Cc1ccccc1)CC(F)(F)F	-2	-2
Fc1ccc(NC(=S)Nc2cccc3cnccc23)cc1	-2	28
COCc1nc(NCCC2=CCCCC2)c2cnn(C)c2n1	7	5
CCN(CC(=O)NC1CCS(=O)(=O)C1)Cc1cccc(Br)c1 (configuration not stated)	-1	12
CC1(C(=O)NS(=O)(=O)c2ccc(C#N)cc2)CCN1C(=O)CCc1ccc(Cl)cc1Cl (configuration not stated)	12	6
CCC(C)(C)C1CCC(NC(=O)c2ccnc(C)n2)CC1 (configuration not stated)	5	1
O=C(N=Nc1c(O)[nH]c2c(Cl)cc(Cl)cc12)C12CC3CC(CC(C3)C1)C2	7&20	4&24
Cc1nnsc1CN(C)C(=O)c1cc2ccccc2n1C	-2	-5
CC1C(=O)Nc2ccccc2N1Cc1c(Cl)ccc2cccnc12 (configuration not stated)	0	-7
CN1CCC=C(CN(Cc2ccc3c(c2)OCO3)C(=O)N2CCCCC2)C1	0	0
O=C(NC1CCCCNC1=O)c1cc(-c2ccccc2F)n2nc(-c3ccccc3)cc2n1 (configuration not stated)	3	4
